Screens as filed in PubChem BioAssay.
ClpP mod = qHTS Assay for Activators of ClpP; ATP-dependent Clp protease proteolytic subunit (Bacillus subtilis (strain 168)), P80244; purified B. subtilis ClpP, FRET peptide cleavage, 20 min; Potency, µM (series often up to 57.5 µM), without a hit: at the top dose activity change, negative = active; 1.9% of 340,000 active; AID 651965, 2013; active = well fitted falling curve with a large enough effect; inconclusive = small, poorly fitted or top-dose-only effect; inactive = no such curve, though single readings can be large or run the other way; also: the source files actives as falling curves though it sought activators and does not explain the sign; nearly all actives have a fitted effect of over 65% in size; many hits overshoot -100%
Target sequence (P80244 whole entry, looked up): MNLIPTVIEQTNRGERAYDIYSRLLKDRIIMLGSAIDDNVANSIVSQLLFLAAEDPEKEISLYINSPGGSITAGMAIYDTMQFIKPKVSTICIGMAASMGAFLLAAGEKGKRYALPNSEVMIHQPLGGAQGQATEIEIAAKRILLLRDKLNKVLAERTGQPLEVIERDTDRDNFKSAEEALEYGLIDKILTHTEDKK
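ClpP 10 microg/mL final, pH 8 Tris/KCl buffer with BSA, glycerol, Tween-20; compound pinned in; FRET-FV substrate; RT 20 min; Ex320/Em430; ΔFRET vs ADEP 5.8 microM, DMSO, no enzyme.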
PINK1 expr mod = PINK1 expression modulation; AID 624263; 0.2% of 410,000 active; Potency, µM (highest dose often 76.6 µM), for the others: top-dose activation (PINK1 increase), hits mostly activators; PINK1 immunofluorescence, high-content cytometry, 24 h; active = well fitted activation curve with a large enough effect; inconclusive = small, poorly fitted or top-dose-only effect; inactive = flat fitted curve, though single readings scatter; cell line not stated here;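 also: % of control where 0% means no effect; nearly all actives have a fitted effect of over 65% in size; a mitochondrial uncoupler was the plate control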
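Stable cell line treated 24 h with compounds at 5 concentrations (CCCP controls), then fixed and immunostained for PINK1 plus nuclear and cell stains; PINK1 immunofluorescence quantified by laser-scanning microplate cytometry.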
Active calls of the source: *; ? = inconclusive. Potency is read from the fitted curve at half-maximal effect. Some of the compounds tested (hit frequency here may not be typical).

molecule | ClpP mod | PINK1 expr mod
CCCOc1ccc(CNC(=O)CCCn2nc(C)c3sc4ccccc4c3c2=O)cc1 | -2.5% | 1.0%
Cc1cc(=O)[nH]c2nnc(SCc3ccc(Cl)c(Cl)c3)n12 | 2.8% | 4.2%
O=C(COc1ccccc1F)NC1CC(=O)N(c2ccc3c(c2)OCCO3)C1 (stereo not given) | 0.5% | 1.7%
Cc1cccc(-c2nc(CSCC(=O)N3CCN(c4ccccc4)CC3)c(C)o2)c1 | -3.2% | -1.9%
Oc1c(C(c2ccccc2Cl)N2CCCC2)sc2nc(-c3ccco3)nn12 (stereo not given) | 1.7% | 3.5%
O=C(CN1C(=O)CCSc2ccccc21)Nc1ccc(C(F)(F)F)cc1 | -2.4% | 1.5%
Cc1ccc(Cl)c2sc(N3CCN(C(=O)C4CC4)CC3)nc12 | -3.1% | 3.8%
CN1CCN(CCCNC(=O)c2cnn(-c3ccccc3)c2C2CCN(C(=O)OC(C)(C)C)CC2)CC1 | -0.7% | -0.2%
Cc1cccc(COC[C@H](Cc2ccccc2)N2CCN(C(=O)c3cc(Cl)cc(Cl)c3)CCC2=O)c1 | -5.6% | 2.9%
CCCc1nc2cc(C)c(Br)c(C)n2c1Cc1ccc(OC)cc1C | -6.8% | 20%
Cc1cc(C)n2c(Nc3ccccc3)c(-c3ccc(C)o3)nc2n1 | 1.8% | 0.3%
CCc1cccc(CC)c1NC(=O)C(CC)n1nc(C)n2c(cc3cc(C)ccc32)c1=O (stereo not given) | -5.6% | 2.0%
CCc1ccc2ncc3c(-c4ccc(C)cc4)nn(CC(=O)NCc4ccccc4)c3c2c1 | -8.2% | 1.7%
Cc1ccccc1Cn1c(CN2CCC(C(=O)NCCc3ccccc3)CC2)cc2ccccc21 | -9.0% | 1.2%
CCN(CC)C(=O)CSc1nc(-c2ccccc2F)nc2c1Cc1c(CO)cnc(C)c1O2 | 0.3% | -1.5%
CCCNC(=O)c1ccc2c(c1)nc1n2CCCCC1 | -0.3% | 1.2%
CCn1cc(C(=O)N2CCN(c3ccccc3)CC2)c(=O)c2cc(S(=O)(=O)N(C)C)ccc21 | 0.8% | 0.6%
CCOc1ccc(CNC(=O)c2ccccc2NC(=O)c2nsc3ccccc23)cc1 | 4.5% | 0.9%
CCOC(=O)Cn1c(=O)n(CC2CCCO2)c2nc(-c3ccccc3F)nc(C(N)=O)c21 (stereo not given) | 4.0% | -1.2%
Cc1cccc(N2CCN(S(=O)(=O)c3cc(Cl)ccc3Cl)CC2)c1C | -1.1% | -1.3%
COc1ccc(-c2noc(-c3ccc(N4CCN(C)CC4)c([N+](=O)[O-])c3)n2)cc1OC | -1.0% | 3.4%
CCc1ccccc1NC(=O)CSc1nnc2ccc3ccccc3n12 | -5.3% | 1.5%
COc1ccccc1/C=C/c1ccc2ccccc2n1 | 4.2% | 2.6%
CC(C)CCNC(=O)CCCn1c(=O)c2cccn2c2ccccc21 | 2.6% | 1.6%
Cc1oc2ncn(C)c(=O)c2c1C(=O)NCCCN1CCCC(C)C1 (stereo not given) | -2.3% | 0.1%
COc1cc(OC)c(NC(=O)C2CCCN(c3ncnc4c3nc3n4CCCCC3)C2)cc1Cl (stereo not given) | -1.9% | 4.4%
O=Cc1ccc(/C=C2/C=Cc3ccccc32)cc1 | -0.4% | 0.1%
O=C(Nc1ccccc1)C(Cc1ccccc1)N1Cc2ccccc2C1=O (stereo not given) | 1.1% | ?
CCCCn1c2ccccc2c2nnc(SCC(=O)Nc3ccc(NC(C)=O)cc3)nc21 | -2.9% | 1.8%
CCCCOCCCNC(=O)C[C@@H]1C[C@@]2(C(=O)OCC)CCC=C2N(Cc2ccc3c(c2)OCO3)C1=O | 1.3% | -0.4%

No new results follow: 5 of the compounds above.
molecule | ClpP mod | PINK1 expr mod
CCc1cccc(CC)c1NC(=O)C(CC)n1nc(C)n2c(cc3cc(C)ccc32)c1=O (stereo not given) | -5.6% | 2.0%
CCc1ccc2ncc3c(-c4ccc(C)cc4)nn(CC(=O)NCc4ccccc4)c3c2c1 | -8.2% | 1.7%
Cc1ccccc1Cn1c(CN2CCC(C(=O)NCCc3ccccc3)CC2)cc2ccccc21 | -9.0% | 1.2%
CCN(CC)C(=O)CSc1nc(-c2ccccc2F)nc2c1Cc1c(CO)cnc(C)c1O2 | 0.3% | -1.5%
CCCNC(=O)c1ccc2c(c1)nc1n2CCCCC1 | -0.3% | 1.2%

Next compounds
molecule | ClpP mod | PINK1 expr mod
Cc1ccc(C)c(OCC(=O)Nc2ccc(S(=O)(=O)Nc3onc(C)c3C)cc2)c1C | -3.1% | -2.8%
CC(=O)N1c2ccc(S(=O)(=O)N3CCCCCC3)cc2CC1C(=O)NCc1cccc(C)c1 (stereo not given) | -0.6% | 1.8%
Cc1ccc(C)c(Cn2c(=O)c3c(nc4n3CCN4c3ccc(F)cc3)n(C)c2=O)c1 | -4.4% | -0.6%
c1ccc(CNc2ncnc3nc(N4CCOCC4)[nH]c23)cc1 | 1.9% | -0.3%
CCOC(=O)c1c(-c2ccccc2)oc2cc(Br)c(OCc3ccccc3)cc12 | -15% | 2.7%
COc1ccc2c(c1)c1c(c(=O)n(Cc3ccccc3)c(=O)n1Cc1ccc(C)cc1)n2C | 4.1% | -0.3%
CSc1nc2sc3c(c2c(=O)n1-c1ccc(F)c(Cl)c1)CCN(C(C)=O)C3 | -7.5% | 1.0%
Cc1ccc2oc(=O)c3cnn(CC(=O)NCc4ccccc4Cl)c3c2c1 | -3.1% | 1.4%
Cc1nc2ccc(S(=O)(=O)CCC(=O)Nc3ccc(C)c(C)c3)cc2s1 | -2.0% | 0.2%
COc1cc2c(=O)c(S(=O)(=O)c3ccc(C)cc3)cn(Cc3cccc(C)c3)c2cc1OC | ? | 2.6%
CSc1ccc(CCNC(=O)c2cc(C)nc3c2c(C)nn3-c2ccccc2)cc1 | 67% | 1.0%
CCc1cnc2c(c1SCC(=O)N1CCCCC1)c(=O)n(C)c(=O)n2C | -3.7% | 2.0%
CCOC(=O)c1c(NC(=O)Nc2ccc(F)cc2)sc(C(=O)N(C)C)c1C | -11% | 0.8%
CC(C)Oc1ccc(C(=O)NCCc2csc(-c3cccc(F)c3)n2)cc1 | -16% | 0.6%
N#C/C(=C\c1ccccc1F)c1nc2ccccc2c(=O)[nH]1 | -0.3% | 2.1%
COc1ccccc1C(=O)Nc1ccccc1C(=O)OCc1cc(=O)n2c(C)csc2n1 | 2.8% | -0.7%
CC1CCC(Nc2nc3c(-c4ccc(Cl)cc4)nnn3c3ccccc23)CC1 (stereo not given) | ? | 0.3%
CC(C)CCNC(=O)c1cccc(-n2cnc3cccnc32)c1 | -2.4% | -1.4%
CNC(=O)C1CCC(Cn2c(=O)c3sccc3n(CC(=O)NCc3ccc(C)cc3)c2=O)CC1 (stereo not given) | -1.2% | -0.2%
CCOc1ccc(CCNC(=O)CCn2c(=O)c3cccn3c3ccc(F)cc32)cc1 | -5.0% | 0.5%
COc1ccc(C(=O)CC2(O)C(=O)N(Cc3ccccc3Cl)c3ccccc32)cc1 (stereo not given) | 0.3% | 0.1%
Cc1ccc(C)c(NS(=O)(=O)c2ccc3oc(=O)c4ncn(C)c4c3c2)c1 | 0.1% | 8.4%
CCOC(=O)Cn1c(=O)oc2cc(S(=O)(=O)Nc3cc(OC)cc(OC)c3)ccc21 | 2.0% | -0.6%
O=S(=O)(c1ccc(Br)cc1)c1nnn2c1nc(NCCc1ccccc1)c1sccc12 | ? | 0.5%
CCCOc1cccc(C(=O)Nc2cccc(-c3nc4ncccc4o3)c2C)c1 | -5.1% | -0.3%
CCOc1ccc(NC(=O)Cn2cc(C(=O)c3ccccc3)c(=O)c3cc4c(cc32)OCO4)cc1 | -1.5% | -0.1%
CCc1ccccc1NC(=O)c1sc(-n2nc(C)c(Cc3ccc4c(c3)OCO4)c2C)nc1C | -2.9% | 0.1%
Cc1ccc(CSC2=NC(C)(C)Nc3ccccc32)c(C)c1 | -18% | ?
CCOc1ccc(-n2nc(CO)c(C(=O)NCC(c3ccccc3)c3ccccc3)n2)cc1 | ? | 1.8%
COc1ccc(Cl)cc1NC(=O)CSc1ccc2nnc(CCNS(=O)(=O)c3ccccc3)n2n1 | 0.0% | 0.0%
O=C(CCn1c(=O)c2cccn2c2cccnc21)Nc1ccccc1Br | -25% | 1.7%
COCc1cc(C)nc2c1C(=O)NC(c1ccc(NC(C)=O)cc1)N2Cc1ccccc1 (stereo not given) | 4.2% | -0.5%
CCOC(=O)c1ccccc1NC(=O)Cn1c(=O)n(Cc2ccc(C(=O)NCc3ccc4c(c3)OCO4)cc2)c(=O)c2ccccc21 | 3.8% | 1.0%
COc1ccc(-n2cc(C(=O)Nc3ccccc3C#N)c3ccccc3c2=O)cc1 | -6.0% | 0.3%
COc1cccc(C(=O)Nc2ccc3nc(SCC(=O)N4CCOCC4)sc3c2)c1 | -0.8% | 2.2%
Cc1ccc(C)c(Cn2c(=O)n(Cc3ccc4c(c3)OCO4)c(=O)c3oc4ccccc4c32)c1 | -3.1% | 0.2%
CCC(C)NC(=O)c1ccc2c(c1)N(Cc1ccccc1)C(=O)c1ccccc1S2 (stereo not given) | -11% | 0.5%
COc1cccc(CSc2nc3n(n2)C(CC(C)C)C(C(=O)Nc2ccccc2OC)=C(C)N3)c1 (stereo not given) | -17% | 20%
Cc1cc(Cl)ccc1OCC(=O)N1CCC(c2nc3ccccc3o2)CC1 | 1.4% | 3.7%
COc1ccc(N2CCN(S(=O)(=O)CCNC(=O)c3ccc(OC(C)C)cc3)CC2)cc1 | -5.6% | 0.7%
Cc1ccc(C(=O)Nc2nc(-c3nnn(-c4cccc(Cl)c4C)c3C)ns2)cc1C | -28% | 5.8%
COc1ccc(Nc2nc3ccc(Cl)cc3nc2-n2nc(C)cc2C)cc1 | -5.1% | 2.2%
Cc1ccc(CN2CCC(CNc3ncnc4onc(-c5ccc(F)cc5)c34)CC2)cc1 | 5.2% | -0.3%
CCCCCCc1c(C)c2c(cc(C)c3c(C)c(C)oc32)oc1=O | -8.7% | -0.8%
COc1ccccc1NC(=O)C1=C(C)Nc2nc(SCc3ccc(Cl)cc3)nn2C1c1ccccc1Cl (stereo not given) | ? | 0.7%
CCc1ccccc1Nc1nn2c(=O)c3ccc(C(=O)NCc4cccs4)cc3nc2s1 | 4.5% | 5.1%
COc1ccc(-c2nc3scc(CCNS(=O)(=O)c4ccc(C)cc4)n3n2)cc1 | -4.0% | -0.3%
Cc1ccc(S(=O)(=O)c2cc3cc(C(=O)Nc4ccc(C)cc4C)ccc3oc2=O)cc1 | -7.7% | 2.8%
CC(C)(C)C1CCc2nc(NC(=O)Cc3ccccc3)sc2C1 (stereo not given) | -1.0% | 11%
Cc1ccc(-c2csc3ncnc(Sc4nnnn4C4CC4)c23)cc1 | -3.6% | 1.1%
CC(=O)Nc1nnc(SCc2cc(=O)c3cccc(C)c3[nH]2)s1 | 0.2% | 1.5%
CCn1c(=O)cc(OCC(=O)N2CCN(c3cccc(C)c3C)CC2)c2ccccc21 | -1.0% | 4.8%
Cc1nn(S(=O)(=O)c2ccc(C(C)C)cc2)c(C)c1S(=O)(=O)N1CCCCC1 | 0.4% | -0.6%
Cc1ccc(Cl)cc1NC(=O)CCCn1c(=O)c2cccn2c2ccccc21 | -5.9% | 10%
CCOC(=O)c1c(C)[nH]c(C)c1S(=O)(=O)NCC(=O)N1CCN(c2cc(Cl)ccc2C)CC1 | -3.9% | 0.1%
Cc1ccc(S(=O)(=O)c2nc(-c3ccccc3)oc2N2CCN(c3ccccc3)CC2)cc1 | ? | 0.1%
Cc1cc(C)cc(-n2c(SCC(=O)Nc3ccccc3)nc3c(oc4ccccc43)c2=O)c1 | -8.7% | 3.2%
CCOc1ccc2nc(NC(=O)c3cc(=O)c4cc(C)cc(C)c4o3)sc2c1 | 1.5% | 7.9%
COc1ccc(N(Cc2ccccc2)C(=O)c2nc(SC)ncc2Cl)cc1 | 2.2% | 2.1%
CCOc1ccccc1NC(=O)Cn1ncc2c([nH]c3ccccc32)c1=O | -0.9% | 2.1%

(continued)
molecule | ClpP mod | PINK1 expr mod
COCCCn1c(=N)c(C(=O)NCc2cccnc2)cc2c(=O)n3cc(C)ccc3nc21 | 4.4% | 0.8%
CN(CCc1ccccc1)C(c1ccnc2ccccc12)c1nnnn1-c1ccc2c(c1)OCCO2 (stereo not given) | -1.2% | 0.2%
CCOC(=O)c1c(C)[nH]c(C)c1S(=O)(=O)N1CCCC(C(=O)Nc2ccc(C)cn2)C1 (stereo not given) | 2.0% | -0.3%
CSc1ncc(Cl)c(C(=O)Nc2cc(C(F)(F)F)ccc2Cl)n1 | -2.1% | 0.8%
COC(=O)c1c(-c2ccc(Cl)cc2)noc1N1CCN(c2ccccc2F)CC1 | -7.6% | 0.3%
O=C(NCCN1CCC(n2c(=O)[nH]c3ccccc32)CC1)c1cccc(Cl)c1 | -1.4% | 3.4%
O=C(CN1C(=O)CC(c2ccco2)Sc2ccccc21)Nc1ccc(C(F)(F)F)cc1 (stereo not given) | -6.1% | 3.4%
Cc1ccc(C(=O)NCC(c2ccc3c(c2)OCO3)N2CCOCC2)cc1 (stereo not given) | -1.7% | 1.8%
